MT1-MMP act inh = blockers of MT1-MMP proenzyme processing, primary screen, HT1080 RFP-PRO-GFP cells, GFP/RFP fluorescence; Matrix metalloproteinase-14 (Homo sapiens), P50281; GFP/RFP ratio fluorescence, overnight; percent of plate control window, DMSO zero; GFP/RFP ratio change, % at 20 µM; actives 0.061% (n = 360,000); AID 651647, 2012;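 active = GFP/RFP ratio change of at least 30% with cell ATP level not reduced by more than half and red fluorescence within 50% of control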; also: strong numbers were not always called active
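Test system: HT1080 cells expressing an RFP-PRO-GFP fluorescent reporter construct / Compound dosing: single-point 20 µM compound, 1% DMSO / Schedule: cells overnight before dosing, compound overnight, 37 °C, 5% CO2 / Evaluation: GFP/RFP fluorescence ratio / Control set: DMSO and RFP-L50D-GFP cell wells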
eIF4H inh = human eIF4H binding inhibitors, primary screen, translation initiation inhibitor project, biochemical, uHTS, fluorescence polarization; Eukaryotic translation initiation factor 4H (Homo sapiens), Q15056; eIF4H fluorescence polarization binding assay; inhibition, % at 35 µM; actives 0.94% (n = 290,000);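 active = 50% or more with normal probe brightness, or confirmed in later tests; inconclusive = above 50% with abnormal brightness, or retests that disagree; inactive = below 50% or failed in later tests; about a fifth of its hits are not listed in these tables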;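 also: calls also rest on retests at 20 µM and on dose response follow-up; 0% = protein and probe with vehicle and 100% = probe without protein; strong numbers were not always called active; many hits fall short of the cut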
CSC inhib = cancer stem cell viability inhibitors, primary screen, luminescence; cancer stem cell-like cells viability; inhibition, % at 7.5 µM; actives 1.1% (n = 300,000); AID 2717, 2010;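 active = mean at 75% or more and at least half the replicates too; inconclusive = mean and replicates disagree; tested in HMLE shEcad cells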;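 also: 0% = median of negative and 100% = median of positive control wells; the first replicate is given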
Rce1 inh = yeast Rce1p protease inhibitors, primary screen, biochemical, fluorescence, cell-free homogeneous; yeast membranes, quenched prenylated peptide cleavage fluorescence; AID 2563, 2010; calls only; actives 0.27% (n = 290,000); CAAX prenyl protease 2 (Saccharomyces cerevisiae (strain ATCC 204508 / S288c)), Q03530;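 active = fall in fluorescence gain of 50% or more versus controls, with final raw signal at or below 3038400; inconclusive = same 50% fall but final raw signal above 3038400; inactive = fall in fluorescence gain under 50%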;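 also: plate controls were neutral control wells for no effect and wells lacking membranes for full effect; tested at 10 µM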
Yeast UUG start = modulators of yeast start codon fidelity, primary screen, whole organism, S. cerevisiae, single point, plate reader. activity score, % at 18.7 µM. AID 602363, 2012. S. cerevisiae UUG-firefly luciferase reporter, luminescence/redox ratio. actives 0.13% (n = 350,000);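 active = replicate mean at a twofold rise or more, about +100% in these data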;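 also: firefly luciferase made from a UUG start codon reports start codon fidelity; reporter light over untreated wells divided by growth signal over untreated wells; some hits fall short of that in this replicate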
PABP FP inh = PABP poly(A) RNA binding inhibitors, primary screen, biochemical, fluorescence polarization, uHTS; Polyadenylate-binding protein 1 (Homo sapiens), P11940; inhibition, % at 35 µM; actives 1% (n = 290,000);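 active = 50% or more with normal probe brightness, or confirmed in later tests; inconclusive = above 50% with abnormal brightness, or retests that disagree; inactive = below 50% or failed in later tests; about a fifth of its hits are not listed in these tables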;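 also: calls also rest on retests at 20 µM and on dose response follow-up; controls were probe without protein and protein plus probe with vehicle; some compounds called inactive have numbers as strong as hits; many hits fall short of the cut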
Target sequence (P11940 whole entry, looked up): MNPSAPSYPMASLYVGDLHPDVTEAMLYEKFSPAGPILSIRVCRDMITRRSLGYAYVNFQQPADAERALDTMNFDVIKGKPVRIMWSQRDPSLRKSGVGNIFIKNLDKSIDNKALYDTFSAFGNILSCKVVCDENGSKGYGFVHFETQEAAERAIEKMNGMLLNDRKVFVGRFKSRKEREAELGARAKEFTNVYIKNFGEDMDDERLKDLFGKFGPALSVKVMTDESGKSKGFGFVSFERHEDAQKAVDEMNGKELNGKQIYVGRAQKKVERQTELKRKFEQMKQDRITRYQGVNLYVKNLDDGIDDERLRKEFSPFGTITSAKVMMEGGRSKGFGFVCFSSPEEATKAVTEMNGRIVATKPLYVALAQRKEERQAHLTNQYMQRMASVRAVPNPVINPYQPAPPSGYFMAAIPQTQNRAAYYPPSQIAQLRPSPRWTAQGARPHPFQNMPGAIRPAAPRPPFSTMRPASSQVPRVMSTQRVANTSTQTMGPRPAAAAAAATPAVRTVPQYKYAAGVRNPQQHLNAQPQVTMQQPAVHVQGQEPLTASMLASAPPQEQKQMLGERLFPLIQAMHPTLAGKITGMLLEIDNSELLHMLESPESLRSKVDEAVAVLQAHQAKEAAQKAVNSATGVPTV
Env fusion inh = inhibitors of HIV-1 Env-driven cell-cell fusion, primary screen, HeLa-JRFL effector, CEM21 target cells, luciferase. inhibition, % at 12.3 µM. AID 651610, 2012. actives 1.1% (n = 360,000);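 active = mean replicate inhibition score of at least 50 and every replicate individually at or above 50; inconclusive = only one of the two criteria met; inactive = mean below 50 and not all replicates reaching 50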;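 also: 0% = plate neutral controls and 100% = maraviroc near 300 nM; one replicate is shown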
eIF4H inh retest = second read-out of eIF4H inh, no call of its own (marks repeat the call); inhibition, %; compound at 20 µM; confirmation average;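 mean of two retest wells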
PABP FP inh retest = recorded beside PABP FP inh, whose call it bears; inhibition, %; compound at 20 µM; confirmation repeats;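 mean of two retest wells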
MT1-MMP act inh RFP = recorded beside MT1-MMP act inh, whose call it bears; RFP signal change, %; measured here: RFP expression control read;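 0 = vehicle wells; hits needed this value within 50% of zero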
Starred values were filed as active, the others as inactive; i = inactive; u = inconclusive; x = no result given.

SMILES	MT1-MMP act inh	MT1-MMP act inh RFP	eIF4H inh	CSC inhib	Rce1 inh	Yeast UUG start	PABP FP inh	Env fusion inh	others
CC(C)(C)C(=O)N1CCN(c2ccc([N+](=O)[O-])cc2-n2cccc2)CC1	4	-11	-16	-3	i	-7	-5	-5
CCOc1ccc(S(=O)(=O)Nc2cc(Cl)ccc2O)cc1	0	-16	-4	x	i	-18	-1	x
CN1CC(=O)N/C1=N\C(=O)Nc1ccc(O)cc1	0	4	-2	-11	i	-13	8	-16
N#CCC(=O)Nc1ccc(C(=O)NCC(c2ccco2)N2CCCCC2)cc1 (centres undefined)	-16	5	81	-8	i	x	-7	-5	eIF4H inh retest=-1;PABP FP inh retest=-4
COCCCNC(=O)CNC(=S)N(Cc1ccccc1)Cc1cccnc1	-3	-2	12	-9	i	-13	u	-4
CCCCSCCCNC(=O)c1cn(C)c2ccc(S(=O)(=O)N3CCCC3)cc2c1=O	7	5	-3	-9	i	-17	6	18
CCC1(C)N(O)C(C)(C)C(c2ccc(OC)cc2)=[N+]1[O-] (centres undefined)	6	3	3	-9	i	-10	-8	-2
O=C(Nc1ccn(CCCNCCCN2CCCC2=O)c(=O)n1)OCc1ccccc1	2	1	x	x	x	0	x	-9
Cc1ccc2c(CC(=O)O)coc2c1	-3	10	-5	-13	i	-12	0	x
CCCCn1c(N)c(N(CCOC)C(=O)c2cccc(S(=O)(=O)N3CCCCCC3)c2)c(=O)[nH]c1=O	1	5	x	0	i	x	x	19
CCn1cc(C(=O)C(F)(F)F)c2ccccc21	-1	3	-3	-7	i	-7	-6	-19
COc1ccccc1-n1cnc2cc(C(=O)NCCCN3CCOCC3)ccc21	3	-3	-3	5	i	-27	6	x
CCCN1CNC(=S)N(Cc2ccccc2)C1	4	5	-14	-4	i	-22	4	-26
CC(=O)c1c(C(=O)O)[nH]c(C(=O)O)c1C	2	3	6	-15	i	x	-7	-9
FC(F)(F)c1cc(-c2ccco2)nc(N2CCN(c3ccccc3)CC2)n1	-4	2	7	13	i	-14	6	-8
S=C(Nc1ccc(Nc2ccccc2)cc1)NN1CCOCC1	6	-5	-8	-15	i	x	-4	4
COc1ccc(N2C(=O)C3CCCN3C2=O)cc1 (centres undefined)	0	1	8	-8	i	-16	-2	-47
O=C(CCNc1cc(Cl)cc(Cl)c1)c1ccco1	4	6	-3	16	i	-17	3	x
COC(=O)[C@@H](Cc1ccccc1)NC(=O)[C@H]1CCC(=O)N1C(=O)OCc1ccccc1	-1	-4	-2	-3	i	-4	-10	x
COc1ccc(-c2noc(-c3ccoc3C)n2)cc1	-3	-2	-1	13	i	x	0	-61
Cc1cc2[nH]c(=O)c(=O)[nH]c2cc1S(=O)(=O)NC1CCCCC1C (centres undefined)	0	2	-1	-2	i	-10	-2	x
CCN(CC(=O)Nc1ccccc1OC)CC(=O)Nc1ccccc1C(F)(F)F	4	3	-6	4	i	x	-5	4
COC(=O)C1=C(C)NC(C)=C(C(=O)OC)C1C(=O)OCC(=O)NC1CCCCC1C (centres undefined)	3	4	x	x	x	6	x	68*
O=C(NCc1ccc(F)c(F)c1)c1ccc(-c2ccc(F)c(F)c2)c2ccoc12	-1	-9	x	x	x	18	x	-7
COc1ccc(Cl)cc1NC(=O)CN(C)C(=O)CCCc1c[nH]c2ccccc12	5	2	4	16	i	7	-2	76*
Following part.
SMILES	MT1-MMP act inh	MT1-MMP act inh RFP	eIF4H inh	CSC inhib	Rce1 inh	Yeast UUG start	PABP FP inh	Env fusion inh	others
S=C(NCCN1CCOCC1)Nc1ccc(-c2nc3ccccc3[nH]2)cc1	0	-9	-6	-4	i	x	-10	-32
COC(=O)c1sc(NC(=O)c2c(OC)cccc2OC)c(C#N)c1C	-1	2	-4	-2	i	4	-2	-15
CCOC(=O)CC(=O)CSc1nnc2sc3ccccc3n12	-12	-4	3	x	x	-5	10	-14
O=C(CSc1nc2ccc(F)cc2c(=O)n1-c1ccccc1)Nc1ccc2c(c1)CCC2	-9	-7	x	x	x	-19	x	20
Cc1ccc(N(C)S(=O)(=O)c2cc(-c3cnc(C4CC4)o3)ccc2C)cc1	-2	-23	-8	40	i	-21	1	11
CCOC(=O)C[C@H]1c2ccc(C(F)(F)F)cc2S(=O)(=O)N1C(C)C	4	2	x	x	i	-12	x	9
CCOc1ccc(NS(=O)(=O)CC23CCC(CC2=O)C3(C)C)cc1 (centres undefined)	1	-1	4	-8	i	2	8	-3
N#Cc1cccc(NC(=O)CCN2C(=O)C3CCCCC3C2=O)c1 (centres undefined)	1	3	x	2	x	-11	x	-17
Cc1ccccc1-c1n[nH]c(=S)o1	1	3	-3	-7	i	-17	3	x
Brc1ccc(-c2ccc(/C=N/Nc3nc(N4CCOCC4)nc(N4CCOCC4)n3)o2)cc1	-6	-7	3	-8	i	0	11	37
Cc1ccc(NS(=O)(=O)c2ccc3c(c2)NC(=O)CO3)cc1Cl	-2	-2	-10	0	i	4	-9	4
Cn1c(SCC(=O)N2c3ccccc3Sc3ccc(Cl)cc32)nnc1-c1ccco1	-2	-7	-1	-1	x	-3	7	x
Cc1nn2c3ccccc3n(C)c2nc1=O	3	2	-5	-3	i	-12	-4	x
O=C(NCCN1CCOCC1)c1c(Cl)cccc1Cl	3	3	6	8	i	-18	-2	-10
COCC(C)NC(=S)NC(=O)c1cc(S(=O)(=O)N2CCOCC2)ccc1C (centres undefined)	1	-2	-2	4	i	x	-10	11
CC(C)=CCN1CCN(Cc2cccn2-c2nccs2)CC1CCO (centres undefined)	-3	-2	3	x	i	x	-4	19
c1ccc2c(C3CCO3)cccc2c1 (centres undefined)	0	3	x	-1	x	-13	x	x
COc1ccc(NS(=O)(=O)c2cccc(C(=O)NN=Cc3ccc(OC)c(O)c3)c2)cc1	5	-5	x	-13	x	-11	x	18
COc1ccccc1C(=O)NC1CC2CCCC(C1)N2Cc1ccccc1 (centres undefined)	2	4	x	x	x	-14	x	1
COc1ccc(C2C=C(c3ccc(Br)s3)Nc3ncnn32)cc1OC (centres undefined)	x	x	u	6	i	x	-8	x
CC(NC(=O)c1ccc(N(C)C)c([N+](=O)[O-])c1)c1ccc(-n2ccnc2)cc1 (centres undefined)	7	-6	-6	-9	i	-7	-7	-14
CCOC(=O)c1sc(NC(=O)c2sccc2C)cc1C	-5	-6	-7	39	i	-34	-7	i
CC(C)Cc1cc(CN2CCCC(CO)(Cc3cccc(Cl)c3)C2)[nH]n1 (centres undefined)	-2	-3	-9	-3	i	x	-3	7
Cc1[nH]c2ccccc2c1C(=O)CSc1ccc(F)cc1	-2	-4	-10	-1	i	-28	9	-90
O=C(Nc1ccccc1)C1Cc2c(-c3ccco3)ccnc2O1 (centres undefined)	-7	-6	x	x	x	-10	x	11

The list goes on; it opens with the two that closed the last part.
SMILES	MT1-MMP act inh	MT1-MMP act inh RFP	eIF4H inh	CSC inhib	Rce1 inh	Yeast UUG start	PABP FP inh	Env fusion inh	others
Cc1[nH]c2ccccc2c1C(=O)CSc1ccc(F)cc1	-2	-4	-10	-1	i	-28	9	-90
O=C(Nc1ccccc1)C1Cc2c(-c3ccco3)ccnc2O1 (centres undefined)	-7	-6	x	x	x	-10	x	11
CC1CCN(C(=O)c2ccccc2NC(=O)Nc2ccccc2)CC1	0	3	1	11	i	1	-15	-1
COC(=O)c1ccccc1NC(=O)COC(=O)/C=C/c1ccco1	2	2	53*	9	i	-3	4	11	eIF4H inh retest=80*;PABP FP inh retest=10
COc1cc(OC)cc(C(=O)OCC(=O)NCc2ccco2)c1	1	0	x	8	x	-11	x	x
CCc1ccccc1NC(=O)C1CCN(C(=O)c2ccc([N+](=O)[O-])cc2)CC1	5	4	-2	-15	i	-5	1	6
Cc1ccc2c(c1)N(Cc1ccc3c(c1)OCO3)C(=O)C(C)O2 (centres undefined)	-5	1	-1	0	i	-9	-11	x
CCOC(=O)CCCCCC(=O)Nc1ccc2c(c1)CC(=O)N([C@@H](C)CO)C[C@H](C)[C@@H](CN(C)C(=O)Nc1ccc3c(c1)OCO3)O2	0	2	x	19	x	27	x	-17
CC1CC(C)CN(C(=O)C2CCCN(c3ncnc4c3nc3n4CCCCC3)C2)C1 (centres undefined)	6	-1	-2	-11	i	-1	-1	14
COc1ccc(NC(=O)C2C3C=CC4(O3)C2C(=O)N(CCN2CCCCC2)C4C(=O)NC2CCCCC2)cc1 (centres undefined)	4	6	-11	-2	x	-3	3	-16
CC1CCCC(C)N1C(=O)Nc1cccc(Cl)c1 (centres undefined)	2	1	-9	-10	i	-2	-9	-46
Cc1cccc(C(=O)C2CCN(S(=O)(=O)c3ccc(C(=O)O)cc3)CC2)c1	-3	3	4	9	i	11	-4	12
Cc1nc(N)sc1-c1csc(Nc2cccc(O)c2)n1	-8	8	41	-6	i	-30	36	-33
COc1ccc(Cl)cc1N(C(=O)c1ccco1)C(C(=O)NC1CCCC1)c1ccncc1 (centres undefined)	-2	3	-2	x	i	-14	-5	-8
Cc1ccc(S(=O)(=O)N(C)C)cc1NC(=O)CN1C(=O)NC(Cc2c[nH]c3ccccc23)C1=O (centres undefined)	3	3	-2	x	i	x	-4	-2
Cc1ccc(-c2nnc(SCC(=O)N3CCCc4ccccc43)n2N)cc1	-1	-1	-9	-6	i	7	-3	x
O=C(COC(=O)c1ccc(F)cc1)NCCc1ccc(F)cc1	-6	-5	4	8	i	x	2	-7
CCOC(=O)c1c(NC(=O)c2cccc([N+](=O)[O-])c2C(=O)O)sc2c1CCCC2	6	1	-13	-2	i	-4	2	-15
Cc1ccc(C(c2nnnn2CC2CCCO2)N2CCN(C)CC2)cc1 (centres undefined)	-2	2	-4	-6	i	-15	-4	9
COC(=O)c1ccc(CNc2ccc(C(C)=O)cc2)cc1	5	-2	x	x	x	-5	x	14
CCc1nc2c(OCc3ccc(Cl)cc3Cl)cccn2c1N(C)C(C)=O	-1	-5	x	x	x	-10	x	29
CCOc1ccc(NC(=O)c2cccnc2Cl)c([N+](=O)[O-])c1	-2	2	8	4	i	2	-1	-56
COc1ccc(S(=O)(=O)N(C)C)cc1NCC(=O)Nc1ccc(Br)cc1F	9	-9	5	-5	i	x	-9	17
CC(=O)NS(=O)(=O)c1ccc(N2C(=O)c3ccccc3C2=O)cc1	-2	0	-5	-10	i	x	59	8	eIF4H inh retest=7;PABP FP inh retest=18
C/C(=N\NC(=O)c1ccc(CSc2cccc3cccnc23)cc1)C1CCCCC1	1	2	-7	1	i	x	-4	30
Clc1cccc(CN2CCSCC2)c1Cl	-1	1	0	12	i	-5	6	5
COc1ccccc1-c1cc(-c2ccccc2)nc(=O)[nH]1	-4	-2	-12	-13	i	-1	-3	0
COc1ccc(N(CC(=O)NCc2ccco2)S(=O)(=O)c2ccc(C)cc2)cc1	-1	1	1	-12	i	-19	-2	x
O=C(NCc1ccc(-c2csnn2)cc1)c1cc(Cl)cc(Cl)c1	1	-1	7	-3	i	x	-2	11
Nc1ccc2nc(SCC(=O)N3CCN(c4ccccc4)CC3)sc2c1	2	-25	-10	-16	i	x	-2	10

Screens: PubChem BioAssay, several laboratories

Not all compounds are listed. The share of hits here may be higher or lower than overall.
